gsp ag – agonists of gsp mutant (McCune-Albright syndrome); 0.13% of 340,000 active; AID 624287; gsp mutant cells, cAMP HTRF, 30 min; control for the full effect not named in the record; Potency, µM (doses to about 76.9 µM), without a hit: at the top dose activation (cAMP increase), usual class: activators; active = well fitted activation curve with a large enough effect; inconclusive = small, poorly fitted or top-dose-only effect, or another doubt; inactive = no such curve, though single readings can be large or run the other way; cell line not stated here;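 further: phosphodiesterase inhibitor Ro 20-1724 added with compounds to block cAMP breakdown; potency means the concentration at half of the fitted maximal effect; nearly all actives have a fitted effect of over 60% in size; about a fifth of the inactives were tested at one dose only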
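Cells stably selected in G418 were plated at 2000/well, grown 16-24 hr, then given compounds in DMSO with the PDE inhibitor […] (300 uM solution added) for 30 min at 37C; cAMP was read by HTRF.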
TRPML1 blocker – blocks the human TRPML1 channel. 0.02% of 390,000 active. activity change, negative = inhibition, % (concentration not given with the values). TRPML1-inducible cells, Ca2+ dye fluorescence, FDSS; active compounds read low; inhibition of EC80 agonist-evoked calcium signal. Q9GZU1. AID 624415; in the data active means activity change below about -50%; inconclusive means about -30% to -50%; inactive means above about -30%;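 further: stimulus is agonist 54-4 at its EC80 concentration; on the % scale 0 is the no-effect control and ±100 the full control effect; the text of the record puts the active cut at -80%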
Target sequence (Q9GZU1 whole entry, looked up): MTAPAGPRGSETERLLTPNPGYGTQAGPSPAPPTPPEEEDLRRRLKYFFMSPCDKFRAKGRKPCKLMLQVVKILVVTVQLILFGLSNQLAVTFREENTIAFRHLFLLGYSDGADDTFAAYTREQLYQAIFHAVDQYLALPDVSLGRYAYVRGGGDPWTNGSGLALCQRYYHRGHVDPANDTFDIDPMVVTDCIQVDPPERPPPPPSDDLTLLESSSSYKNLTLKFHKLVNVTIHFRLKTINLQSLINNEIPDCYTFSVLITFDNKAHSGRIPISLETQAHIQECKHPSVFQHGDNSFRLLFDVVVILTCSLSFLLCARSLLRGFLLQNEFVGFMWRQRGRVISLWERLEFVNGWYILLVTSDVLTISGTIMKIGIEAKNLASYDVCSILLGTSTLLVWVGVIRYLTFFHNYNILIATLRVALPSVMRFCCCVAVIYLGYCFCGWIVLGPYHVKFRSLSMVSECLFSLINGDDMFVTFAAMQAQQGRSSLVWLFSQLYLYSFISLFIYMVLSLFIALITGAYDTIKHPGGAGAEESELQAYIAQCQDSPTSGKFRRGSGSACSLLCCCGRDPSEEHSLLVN
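Calcium fluorescence in TRPML1-DL cells induced overnight with Tet: a 110 s read after compound pin addition, then a 110 s antagonist read after challenge with 54-4 at 4 uM final (EC80).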
Menin MLL FP FL – displaces fluorescein MLL peptide from human menin; Fluorescence polarization, fluorescein-MLL peptide displacement from menin; FP activity change, % at 61.4 µM; 290,000 tested, under 10 active; inconclusive = falling polarisation curve, or a change in total fluorescence; inactive = total fluorescence flat and polarisation flat or rising; no compound was filed as active; the % refers to the polarisation; negative = inhibition;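 further: % of control where 0% means no effect; inhibitors lower the polarisation; unlabelled MLL peptide was the positive control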
TRPML1 agonist – human mucolipin-1 channel agonism; activation, % (concentration not given with the values); AID 624414; Q9GZU1; 0.12% of 410,000 active; TRPML1-expressing cells, Ca2+ dye fluorescence, FDSS; host cell line not named in the record; reference of the full effect not given here; in the data active = activation above about 50%; inconclusive = about 30% to 50%; inactive = below about 30%; further: 0% is about no effect; the text of the record puts the active cut at 80%
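Calcium fluorescence on an FDSS kinetic reader gave the read-out. Tet-induced TRPML1-DL cells were plated overnight, dye-loaded (Ca8 with quencher, 45-90 min, room temperature, dark), then read 110 s after compound addition, and again 110 s after 4uM final 54-4 (EC80).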
ClpP mod – qHTS Assay for Activators of ClpP | 1.9% of 340,000 active | purified B. subtilis ClpP, FRET peptide cleavage, 20 min | Potency, µM (titrated, usually from 57.5 µM), without a hit: at the top dose activity change, negative = active | ATP-dependent Clp protease proteolytic subunit (Bacillus subtilis (strain 168)), P80244; active = well fitted falling curve with a large enough effect; inconclusive = small, poorly fitted or top-dose-only effect; inactive = no such curve, though single readings can be large or run the other way; further: potency means the concentration at half of the fitted maximal effect; the source files actives as falling curves though it sought activators and does not explain the sign; nearly all actives have a fitted effect of over 65% in size; many hits overshoot -100%
Target sequence (P80244 whole entry, looked up): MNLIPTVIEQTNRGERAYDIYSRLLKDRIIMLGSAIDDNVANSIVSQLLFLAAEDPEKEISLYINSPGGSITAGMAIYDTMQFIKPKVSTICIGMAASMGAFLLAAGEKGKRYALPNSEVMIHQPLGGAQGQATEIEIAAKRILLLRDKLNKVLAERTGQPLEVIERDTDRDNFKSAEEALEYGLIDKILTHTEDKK
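Buffer: 100 mM Tris/HCl pH8, 100 mM KCl, 0.05% low protease BSA, 2.5% glycerol, 0.01% Tween-20. ClpP 10 microg/mL final; 20 min RT; delta FRET normalized to ADEP and DMSO controls.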
gsp antag – antagonizes gsp, the McCune-Albright syndrome mutation; gsp-mutant cells, cAMP HTRF, 30 min; control for the full effect not named in the record; Potency, µM (doses to about 76.9 µM), inactives show top-dose activity change, negative = inhibition, hits mostly inhibitors; 0.4% of 340,000 active; AID 624288; active = falling curve of any shape with a large fitted effect; inconclusive = falling curve, mostly with a smaller effect; inactive = flat or rising curve; cell line not stated here;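 further: intracellular cAMP measured with PDE inhibitor Ro 20-1724 present during compound exposure; potency means the concentration at half of the fitted maximal effect; on the % scale 0 is the no-effect control and ±100 the full control effect; nearly all actives have a fitted effect of over 65% in size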
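HTRF cAMP measurement after 30 min RT detection following 30 min, 37C compound treatment alongside […] (added as 300 uM solution) in G418-selected cells seeded at 2000/well and grown 16–24 h.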
Active calls of the source: *; u = inconclusive; x = no result given; & = joins results of further samples; [ ] = remark or other dose. Rows were taken by chance. Share with any hit: about 2.1%.

cpd	molecule	gsp ag	TRPML1 blocker	Menin MLL FP FL	TRPML1 agonist	ClpP mod	gsp antag
1	Cc1ccc(CCNC(=O)CN2C(=O)COc3ccc(S(=O)(=O)N4CCOCC4)cc32)cc1	8%	-10	x	-0.5	1.9%	4%
2	Cn1c(-c2ccccc2)c(C=O)c2ccccc21	u	20	-1.2	1.6	-4.2%	-19%
3	O=C(CO/N=C/c1ccccc1OC(F)F)NCc1cccs1	-26%	-16	3.7	1.5	-2.3%	-11%
4	Cn1cccc1C(=O)OCC(=O)NC1CCS(=O)(=O)C1 (configuration not stated)	13%[15.4 µM]	-14	-0.2	0.0	x	x
5	COc1cccc(CC2(CO)CCCN(Cc3ccc(-c4ccco4)cc3)C2)c1 (configuration not stated)	-2%[15.4 µM]	4	14	-0.7	-0.6%	6%
6	Cn1c(=O)oc2cc(S(=O)(=O)N3CCCC(C(=O)N4CCN(c5cccc(Cl)c5)CC4)C3)ccc21 (configuration not stated)	x	5	x	-0.3	-0.1%	x
7	CCOc1ccccc1OCCCC(=O)NNC(=O)c1nn(C)c(=O)c2ccccc12	5%	10	x	4.6	0.6%	3%
8	COc1ccccc1NC(=O)c1ccc2nc(N3C(=O)CCC3=O)sc2c1	-5%	-7	1.9	-0.9	-2.3%	-9%
9	CCCc1nnc(SCC(=O)N2CCCC2)n1Cc1ccco1	43%[15.4 µM]	-3	4.9	0.8	x	0%
10	Cc1cc(N=Cc2cc(Cl)ccc2O)no1	3%	-7	-0.2	-0.1	-4.5%	6%
11	Cn1cc(Br)c(C(=O)NNC(=O)c2cccc(Br)c2)n1	-22%	7	1.7	-0.4	1.5%	11%
12	Cn1c(O)c(C=NCCCCCC(=O)O)c(=O)n(C)c1=O	-3%	x	x	x	3.5%	-21%
13	CCC(C)C(CO)NCCCn1cnc2c(OCc3ccccc3)ncnc21 (configuration not stated)	u	-6	x	0.0	-0.8%	x
14	N/C(=N\OC(=O)c1ccc(Cl)cc1Cl)c1ccncc1	-17%	66	0.0	1.9	-1.7%	-12%
15	Cc1ccnc(N/C=C(/NC(=O)c2ccccc2)C(=O)N/N=C\c2ccc(Cl)cc2)n1	9%	8	1.5	1.0	0.2%	u
16	O=C1C(=O)N(Cc2cccnc2)C(c2cccc([N+](=O)[O-])c2)/C1=C(/O)c1ccc2c(c1)OCO2 (configuration not stated)	-157%[inhibitor]	22	x	0.8	1.3%	-5%
17	CCOC(=O)c1c(C)c(C(=O)Nc2ccccc2)c(C)n1CC	15%	-8	-1.6	1.2	-2.3%	-10%
18	C/C(=N\NC(=S)Nc1ccccc1C)c1cc2ccccc2o1	-2%[15.4 µM]	46	0.1	2.4	x	-22%
19	COc1cc(/C=C2\SC(=S)N(CCC(=O)Nc3ccccc3)C2=O)cc(OC)c1OC	-2%[15.4 µM]	-3	u	4.2	x	x
20	COc1ccccc1Oc1ccc(N/C=C/C(=O)c2ccc(C)o2)cc1	-33%[inhibitor]	0	u	-0.1	x	-24%
21	Cc1ccc2c(C)c(C(=O)N(C)C(C)c3ccon3)oc2c1C (configuration not stated)	-4%[15.4 µM]	16	4.4	1.4	x	-6%
22	O=C(C[n+]1ccccc1)Nc1cc(C(F)(F)F)ccc1Cl	-11%	-8	-2.9	0.9	-20%	-11%
23	CCCCn1c(SCC(=O)N2CCOCC2)nnc1-c1cccs1	1%	3	-0.3	-0.2	-6.6%	1%
24	CCOc1cc(N2CCOCC2)c(OCC)cc1NC(=O)CN1C(=O)NC2(CCCCC2C)C1=O (configuration not stated)	17%	3	x	-0.3	-0.9%	-12%
25	O=C1[C@@H]2Cc3c([nH]c4ccccc34)C(c3cccc(Br)c3)N2C(=O)CN1C1CCN(Cc2ccccc2)CC1 (some centres not stated)	11%[15.4 µM]	19	-2.0	0.1	-3.4%	0%
26	O=[N+]([O-])c1nn(-c2ccc3c(c2)OCCO3)n(O)c1=Nc1ccccc1	2%	5	3.2	1.8	-1.8%	-9%
27	CC(Oc1cccc(Cl)c1)C(=O)Nc1ccccc1N1CCCC1 (configuration not stated)	2%	4	x	1.0	-3.4%	2%
28	O=C(CCc1nnc(Cc2cccc(C(F)(F)F)c2)o1)NCC(F)(F)F	27%[15.4 µM]	-19	0.6	-0.5	x	12%
29	COc1ccc(NC(=O)Cn2nnc(-c3ccccc3F)n2)cc1Cl	-8%	-3	-2.8	-0.5	-0.9%	13%
30	CCOC(=O)c1c(NC(=O)c2cccs2)sc(C(=O)N2CCOCC2)c1C	3%[15.4 µM]	20	x	1.0	x	0%
31	CSc1nnc(Cc2sc(-c3ccccc3)nc2-c2ccccc2)o1	25%	-5	0.6	1.0	-4.5%	-10%[15.4 µM]
32	CCOC(=O)[C@H]1[C@H]2COc3ccccc3[C@@H]2N2C(=O)CNC(=O)[C@@]12C	x	16	x	0.1	-2.2%	5%
33	Cc1cc(-c2ccc(C)c(S(=O)(=O)N3c4ccccc4CC3C)c2)on1 (configuration not stated)	x	-14	x	1.0	0.1%	x
34	Cc1ccc(CCNC(=O)C2CCCN(C(=O)c3cc4sccc4n3C)C2)cc1 (configuration not stated)	17%	-14	2.3	0.9	-0.5%	u
35	O=C(COC(=O)/C=C/c1ccccc1)NCCNC(=O)COC(=O)/C=C/c1ccccc1	23%[15.4 µM]	-8	x	0.6	x	7%
36	Cc1cc(C(=O)Nc2cccc3ncccc23)no1	-28%	45	0.5	0.5	-4.5%	1%
37	Cc1cccc(/C=C2\Sc3ccc(C(=O)N4CCC(C)CC4)cc3N(C)C2=O)c1	u	4	10	-0.8	0.2%	-7%
38	Cc1ccc(C)c(S(=O)(=O)N2CCN(CC(=O)Nc3ccc4c(c3)OCCO4)CC2)c1	-24%	15	0.8	-0.2	3.0%	-1%
39	CC(=O)O/N=C(\N)c1cnn2c(C(F)(F)F)cc(C(F)(F)F)nc12	-18%	-6	4.2	0.0	0.3%	10%
40	COc1ccc(NC(=O)C2CCC(CNS(=O)(=O)c3cccs3)CC2)cc1OC (configuration not stated)	12%	7&-5	-2.4	-0.3&4.9	-1.7%	-2%
41	CCOc1ccccc1NC(=O)C1CCN(S(=O)(=O)c2c(C)nn(C)c2C)CC1	-26%	-6	-1.1	-0.3	-0.4%	-2%
42	COc1ccc(NC(=S)NCCc2c[nH]c3ccccc23)cc1	16%	-27	9.2	0.5	-2.4%	3%
43	CS(=O)(=O)/C(C#N)=C/c1cccn1S(=O)(=O)c1ccc([N+](=O)[O-])cc1	x	-6	x	-0.1	-2.7%	x
44	Cc1ccc(N(CC(=O)NC(C)c2ccccc2)S(=O)(=O)c2cccs2)cc1 (configuration not stated)	-7%	16	3.5	0.8	-0.4%	8%
45	CCC(=O)NNC(=O)Cc1c(C)n(C(=O)c2ccc(Cl)cc2)c2ccc(OC)cc12	-11%[15.4 µM]	3	1.1	0.6	x	-8%
46	CS(=O)(=O)Nc1ccc(C(=O)NCc2ccccn2)cc1	-26%	10	-2.1	0.1	-3.1%	-1%
47	COc1ccc(Cl)cc1NC(=O)N1CCN(CCc2ccccc2)CC1	-9%	7	3.9	3.2	0.8%	-1%
48	COc1ccc(/C=N/NC(=O)CSc2n[nH]c(=O)[nH]c2=O)cc1	-1%	0	2.1	0.5	0.4%	-2%
49	Cc1ccnc(SCC(=O)c2ccc(Br)cc2)c1C#N	0%	27	4.2	1.4	-2.8%	-18%
50	CCN(CC)S(=O)(=O)c1cccc(C(=O)OC2CC(C)OC2=O)c1 (configuration not stated)	-32%[15.4 µM]	4	7.5	-0.4	x	-14%

(next part)
cpd	molecule	gsp ag	TRPML1 blocker	Menin MLL FP FL	TRPML1 agonist	ClpP mod	gsp antag
51	CC(C)(C)C(=O)c1cn(CC(=O)O)c2ccccc12	u	-11	-2.0	2.4	x	1%
52	NC(=O)C1Cc2ccccc2CN1S(=O)(=O)c1cccs1 (configuration not stated)	26%	4	-2.9	0.4	x	1%
53	COc1cccc(C(=O)Nc2nc3nc(C)c(Cc4ccccc4)c(=O)n3[nH]2)c1	x	-14	x	0.7	0.0%	x
54	CCN1C(=O)C(CC(=O)Nc2ccc(F)cc2)N(Cc2cccs2)C1=S (configuration not stated)	-10%[15.4 µM]	-2	-0.8	-1.2	x	-1%
55	Cc1ccc(Nc2nc(CSc3nnc(-c4cccnc4)n3-c3ccccc3C)cs2)cc1	-5%	-6	9.8	-0.9	28µM*	-25%
56	COC(=O)[C@]1(Cc2ccccc2)N[C@H](CN(C)C(=O)COc2ccccc2)[C@@H]2C(=O)N(Cc3ccccc3)C(=O)[C@@H]21	x	-8	x	-1.1	0.6%	-13%
57	CC1=C(C(=O)OC2CCCCC2)C(c2ccccc2Br)NC(=O)N1 (configuration not stated)	-6%	-8	-4.4	2.6	0.9%	-27%
58	Cc1nc2sc(C(c3ccco3)N3CCOCC3)c(O)n2n1 (configuration not stated)	0%	-17	2.2	-0.3	1.1%	9%
59	O=C(CC1S/C(=N/N=C2CCCCCC2)NC1=O)Nc1ccccc1F (configuration not stated)	8%	-2	-3.5	-0.7	1.4%	-12%
60	O=c1cc(CN2CCN(c3cccc(Cl)c3)CC2)c2cc(O)c(-c3ccccc3)cc2o1	-28%	-23	1.5	-0.1	-2.2%	3%
61	O=S(=O)(Nc1nc2ccc(S(=O)(=O)N3CCCCC3)cc2s1)c1ccccc1	4%	8	-3.7	0.3	-1.5%	-8%
62	Cc1cccc2sc(NC(=O)CSc3cn[nH]n3)nc12	0%	9	-7.1	0.2	x	-17%
63	COc1ccc(-c2csc(NC(=O)CSc3nnnn3C)n2)c(OC)c1	-27%[15.4 µM]	-2	x	-0.3	x	2%
64	Cc1nc(-c2ccc(Cl)cc2)sc1C1(C)CC(c2ccccc2F)=NO1 (configuration not stated)	x	-7	3.0	-0.9	u	-1%
65	CC(C)(C)c1cccc(C2(O)C(=O)c3ccccc3C2=O)c1O	-2%	15	0.2	0.6	x	-6%
66	COc1ccc(C2=NN(C(=O)CN3CCCCC3)C(c3ccc(C)cc3)C2)cc1 (configuration not stated)	-9%[15.4 µM]	15	1.5	0.5	2.2%	16%

An excerpt of these results, with two lines to a compound:
Results follow in this order: gsp ag, TRPML1 blocker, Menin MLL FP FL, TRPML1 agonist, ClpP mod, gsp antag
(45) CCC(=O)NNC(=O)Cc1c(C)n(C(=O)c2ccc(Cl)cc2)c2ccc(OC)cc12
 : -11%[15.4 µM], 3, 1.1, 0.6, x, -8%
(47) COc1ccc(Cl)cc1NC(=O)N1CCN(CCc2ccccc2)CC1
 : -9%, 7, 3.9, 3.2, 0.8%, -1%
(41) CCOc1ccccc1NC(=O)C1CCN(S(=O)(=O)c2c(C)nn(C)c2C)CC1
 : -26%, -6, -1.1, -0.3, -0.4%, -2%
(25) O=C1[C@@H]2Cc3c([nH]c4ccccc34)C(c3cccc(Br)c3)N2C(=O)CN1C1CCN(Cc2ccccc2)CC1 (some centres not stated)
 : 11%[15.4 µM], 19, -2.0, 0.1, -3.4%, 0%
